Source: PubChem BioAssay
Cruzain inh noDet = qHTS Assay for Promiscuous and Specific Inhibitors of Cruzain (without detergent); Cruzipain (Trypanosoma cruzi), P25779; Potency, µM, inactives show max response, negative = inhibition, actives largely listed as inhibitors; 200,000 tested, 2.3% active; AID 1476, 2009; purified cruzain, Z-FR-AMC fluorescence, no detergent;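 note: plate controls were enzyme without inhibitor for no effect and buffer without enzyme for full effect; nearly all actives have a fitted effect of over 40% in size; top concentration of the series not given in the record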
Target sequence (P25779 123-467 limits assumed): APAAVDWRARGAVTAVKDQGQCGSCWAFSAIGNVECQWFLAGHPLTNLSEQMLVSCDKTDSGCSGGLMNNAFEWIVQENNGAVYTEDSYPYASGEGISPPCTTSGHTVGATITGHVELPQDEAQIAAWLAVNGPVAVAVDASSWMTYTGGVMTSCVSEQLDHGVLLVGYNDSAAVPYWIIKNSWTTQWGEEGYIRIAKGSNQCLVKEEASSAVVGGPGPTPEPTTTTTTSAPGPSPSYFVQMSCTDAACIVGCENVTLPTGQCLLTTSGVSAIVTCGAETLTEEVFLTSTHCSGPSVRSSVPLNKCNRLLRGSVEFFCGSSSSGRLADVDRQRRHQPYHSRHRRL
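Purified cruzain at 1.5 nM, pre-incubated 15 min with compound at room temperature in 100 mM sodium acetate pH 5.5, 5 mM DTT, 0.00005% Triton X-100. Reaction started with 2 uM Z-FR-AMC; AMC fluorescence increase over 60 s gives rate.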
StopGo reporter = High Throughput Screening for Foot and Mouth Disease Virus Antivirals. human cells with a luciferase reporter of 2A StopGo recoding; control for the full effect not named in the record. AID 1159524, 2015. 410,000 tested, 1.2% active. Potency, µM (highest dose often 57.9 µM), for inactives: top-dose signal change, negative = less light; active = well fitted falling curve with a large enough effect; inconclusive = small, poorly fitted or top-dose-only effect; inactive = no such curve, though single readings can be large or run the other way; tested in HEK293T cells; note: % is set by controls: 0 for no effect and ±100 for the full control effect; nearly all actives have a fitted effect of over 45% in size; luciferase light after 4 h
Cruzain Triton = qHTS Assay for Promiscuous and Specific Inhibitors of Cruzain (with detergent); 200,000 tested, 0.43% active; AID 1478, 2009; Cruzipain (Trypanosoma cruzi), P25779; Potency, µM, for inactives: max response, negative = inhibition, hits mostly inhibitors; purified cruzain, Z-FR-AMC fluorescence, 0.01% Triton;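 note: plate controls were neutral wells for no effect and buffer without enzyme for full effect; nearly all actives have a fitted effect of over 40% in size; top concentration of the series not given in the record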
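Z-FR-AMC hydrolysis (2 uM substrate) by cruzain (1.5 nM) monitored kinetically at ex 360/em 450 nm after 15 min room-temperature compound exposure; 0.01% Triton X-100, pH 5.5, 5 mM DTT.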
LASV entry inh = qHTS for Inhibitors of binding or entry into cells for Lassa Virus. AID 540256, 2011. 300,000 tested, 1.2% active. Potency, µM (doses to about 37.9 µM), inactives show at the top dose activity change, negative = inhibition, most hits filed as inhibitors. Lassa virus pseudotype entry inhibition, cell reporter; control for the full effect not named in the record; active means well fitted inhibition curve with a large enough effect; inconclusive means small, poorly fitted or top-dose-only effect, or effect the other way; inactive means flat fitted curve, though single readings scatter; tested in HEK293 cells; note: % is set by controls: 0 for no effect and ±100 for the full control effect; nearly all actives have a fitted effect of over 50% in size; luciferase read-out
NS1 function inh = qHTS Assay for Inhibitors of Influenza NS1 Protein Function; S. cerevisiae slowed by influenza A NS1, growth recovery by OD600; Potency, µM (titrated, usually from 46.1 µM), for inactives: at the highest dose activity, positive = more growth; 270,000 tested, 0.4% active; AID 2326, 2010; active means well fitted rising curve with a large enough effect; inconclusive means small, poorly fitted or top-dose-only effect; inactive means no such curve, though single readings can be large or run the other way; note: nearly all actives have a fitted effect of over 50% in size
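Compounds were scored for reversing the slow growth caused by influenza A NS1 in S. cerevisiae, measured by optical density at 600 nm. Assay medium contained 2% galactose at pH 6.0; NS1-free yeast of the same strain were the positive control.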
MARV entry inh = qHTS for inhibitors of binding or entry into cells for Marburg Virus; 300,000 tested, 1.8% active; Marburg virus pseudotyped entry inhibition, cell reporter; control for the full effect not named in the record; about a third of the inactives were read at about 46 µM; Potency, µM (doses to about 37.8 µM), without a hit: at the top dose activity change, negative = inhibition, actives largely listed as inhibitors; AID 540276, 2011; active = well fitted inhibition curve with a large enough effect; inconclusive = small, poorly fitted or top-dose-only effect, or effect the other way; inactive = flat fitted curve, though single readings scatter; tested in HEK293 cells; about a fifth of its hits are not listed in these tables; note: % is set by controls: 0 for no effect and ±100 for the full control effect; luciferase read-out
SARS PLP yeast = qHTS of Yeast-based Assay for SARS-CoV PLP; S. cerevisiae expressing SARS-CoV PLpro, growth rescue; control for the full effect not named in the record; Potency, µM (highest dose often 32.9 µM), for inactives: at the highest dose activity, positive = growth rescue; 330,000 tested, 0.19% active; active means well fitted rising curve with a large enough effect; inconclusive means small, poorly fitted or top-dose-only effect; inactive means no such curve, though single readings can be large or run the other way; note: 0% is about no effect; nearly all actives have a fitted effect of over 55% in size; growth read by luminescence after 48 h
RE007 growth inh = qHTS Assay for Inhibitors of the HIV-1 protein Vpr. S. pombe RE007 Vpr strain, BacTiter-Glo ATP luminescence, 24 h; control for the full effect not named in the record. Potency, µM (doses to about 92.2 µM), inactives show at the highest dose activity change, negative = less growth. 360,000 tested, 0.21% active. AID 651644, 2012; active = well fitted falling curve with a large enough effect; inconclusive = small, poorly fitted or top-dose-only effect; inactive = no such curve, though single readings can be large or run the other way;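 note: % is set by controls: 0 for no effect and ±100 for the full control effect; nearly all actives have a fitted effect of over 50% in size; the assay follows cell death caused by Vpr and the record does not say whether a fall means rescue or toxicity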
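Fission yeast RE007 carrying one integrated HIV-1 vpr copy, seeded at OD 0.01 in PMG+AL medium with 23 nL pinned compound. Grown 24 h at 30 degrees; viability read by BacTiter-Glo luminescence after 5 min.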
* marks the source's active call; other numbers are inactive results; ? = inconclusive; . = not tested or not shown; [ ] = dose if it differs, or a comment. Unless noted, calls come from the whole dose curve; as a rule, active = well fitted curve in the direction sought with a large enough effect; inconclusive = small, poorly fitted or top-dose-only effect, or another doubt; inactive = no such curve, though single readings can be large; an effect the other way counts as inactive or inconclusive. Potency is the fitted concentration of half-maximal effect.

SMILES | Cruzain inh noDet | StopGo reporter | Cruzain Triton | LASV entry inh | NS1 function inh | MARV entry inh | SARS PLP yeast | RE007 growth inh
CCC(=O)N1CCc2cc(Br)cc(S(=O)(=O)N3CCC(C(=O)Nc4ccccc4F)CC3)c21 | ? | 8% | -3.3% | -30%[46.1 µM] | . | 4%[46.1 µM] | . | .
COc1ccc(-c2nc(C#N)c(N3CCC(C(N)=O)CC3)o2)cc1 | 12% | 3% | -22% | -1% | -3% | 10%[46.1 µM] | 4% | 16%
Cc1cc(C)cc(OCc2nnc(SCC(=O)NC3CC3)n2C)c1 | . | 3% | . | -4% | 5% | -5%[46.1 µM] | 27% | -1%
CCOC(=O)c1cc(-c2ccccc2)sc1NC(=O)CN1C(=O)c2ccccc2C1=O | . | -18% | . | 0% | . | -3% | . | -12%
Cc1cc(OC(C)C(=O)NCCCn2ccnc2)c2c(C)c(C)c(=O)oc2c1 (stereo not given) | . | 1% | . | . | -7% | . | -4% | -6%
Cc1cccc(NC(=S)Nc2ccc(Oc3ccccc3)cc2)n1 | -74% | -16% | 2.7% | -18% | ? | ? | 7% | -1%
O=C(c1ccc(Br)cc1)N1CCC(C(=O)N2CCN(c3ccccc3)CC2)CC1 | . | ? | . | . | -7% | . | -4% | 7%
Cc1noc(NS(=O)(=O)c2ccc(N/C=C\C(=O)c3ccccc3)cc2)c1C | . | 0% | . | 3% | . | 15%[46.1 µM] | -1% | ?
Cc1c([N+](=O)[O-])c(C(=O)NC2CCCCC2)nn1C | . | -15% | . | 22%[46.1 µM] | 17% | 15%[46.1 µM] | 2% | -13%
O=C(NCc1ccccc1Cl)C1CCCN1C(=O)Nc1ccccc1 (stereo not given) | . | -13% | . | . | 1% | . | 1% | -4%
CN1CCc2c(sc(NC(=O)c3ccco3)c2C(N)=O)C1 | . | -12% | . | 6% | 10% | -3% | 1% | -22%
COc1ccc(C)cc1NC(=O)Cc1c(C(=O)O)c(C)cn1C | -5% | -8% | 1.9% | 14%[46.1 µM] | . | . | . | .
Cn1nnc2cc(C(=O)NCc3ccco3)ccc21 | -12% | 8% | 5.4% | 14% | -3% | 2% | . | 12%
CC[n+]1c(/C=C(\C)SC)sc2ccccc21 | -8% | . | -4.7% | ? | 8% | -29% | -2% | -16%
CC(C)COc1ccc(Cc2c(O)[nH]c(=S)[nH]c2=O)cc1 | . | 0% | . | 0% | 15% | ? | 5% | 2%

Given with each value named: 3 of the compounds above
O=C(c1ccc(Br)cc1)N1CCC(C(=O)N2CCN(c3ccccc3)CC2)CC1
  Cruzain inh noDet: . | StopGo reporter: ? | Cruzain Triton: . | LASV entry inh: . | NS1 function inh: -7% | MARV entry inh: . | SARS PLP yeast: -4% | RE007 growth inh: 7%
Cc1noc(NS(=O)(=O)c2ccc(N/C=C\C(=O)c3ccccc3)cc2)c1C
  Cruzain inh noDet: . | StopGo reporter: 0% | Cruzain Triton: . | LASV entry inh: 3% | NS1 function inh: . | MARV entry inh: 15%[46.1 µM] | SARS PLP yeast: -1% | RE007 growth inh: ?
Cc1c([N+](=O)[O-])c(C(=O)NC2CCCCC2)nn1C
  Cruzain inh noDet: . | StopGo reporter: -15% | Cruzain Triton: . | LASV entry inh: 22%[46.1 µM] | NS1 function inh: 17% | MARV entry inh: 15%[46.1 µM] | SARS PLP yeast: 2% | RE007 growth inh: -13%

(further entries)
SMILES | Cruzain inh noDet | StopGo reporter | Cruzain Triton | LASV entry inh | NS1 function inh | MARV entry inh | SARS PLP yeast | RE007 growth inh
COc1cc([N+](=O)[O-])ccc1NC(=O)Nc1cnccn1 | . | 8% | . | . | 7% | . | ? | -7%
CCN(CC(=O)NCc1ccc(Cl)cc1)C(=O)CCOc1ccccc1C | . | -20% | . | -25% | . | -9% | 2% | 5%
COc1ccc(NC(=O)CSc2c3c(nc4ccccc24)CCCC3)c(OC)c1 | 12% | 35µM* | -9.3% | ? | -21% | ? | -19% | 4%
CC(OC(=O)/C=C/c1ccccc1)C(=O)Nc1cccc(C#N)c1 (stereo not given) | . | -17% | . | -28% | . | -27% | -3% | 0%
Cc1ccc(NC(=O)c2ccccc2F)nc1 | -4% | -31% | 7.0% | ? | -9% | -8% | 1% | 38%
NC(=O)N/N=C/c1ccc(-n2nncc2-c2ccc(Cl)cc2)cc1 | . | -5% | . | . | -3% | ? | -4% | -6%
Cc1ccc(S(=O)(=O)N2CCN(S(C)(=O)=O)C2c2ccccc2)cc1 (stereo not given) | 1% | 0% | 3.4% | 2% | -6% | -15%[46.1 µM] | 3% | 5%
COc1ccc(CCNC(=O)c2c[nH]n3c(=O)c(Cc4ccccc4Cl)c(C)nc23)cc1OC | ? | -4% | -3.1% | 11%[46.1 µM] | . | . | . | .
Cc1cc(C)c(S(=O)(=O)C(C)C)c(=O)[nH]1 | . | 0% | . | -14% | . | 17%[46.1 µM] | -2% | 5%
COc1cc(OC)nc(Oc2ccccc2C(=O)Oc2ccccc2Cl)n1 | -5% | . | -3.2% | -19% | -36% | 4% | -27% | -2%
Oc1ccc(Nc2nc3ccccc3n3cnnc23)cc1 | -8% | 14% | -5.6% | . | . | ? | . | .
CCCCNCC(=O)Nc1sc(C)c(C)c1C(=O)OCC | -15% | -5% | -2.0% | -2% | -7% | -15% | -9% | -9%
O=C(CN1CCN(c2cccc(C(F)(F)F)c2)CC1)Nc1cccc(C(F)(F)F)c1 | 7% | -19% | -9.1% | 8% | 0% | 9% | -24% | 8%
CCC1Oc2ccc(Cl)cc2N(CC(=O)O)C1=O (stereo not given) | 2% | -5% | 11% | 21% | -2% | 13% | -4% | 1%
CCC(CC)c1nnc(NC(=O)C2COc3ccccc3O2)s1 (stereo not given) | -9% | 0% | -5.1% | -22% | -4% | -15% | -11% | -19%
COc1cc(N)ccc1Cc1ccc(N)cc1OC | ? | -9% | 2.7% | ? | 4% | ? | 3% | 7%
COc1ccccc1S(=O)Cc1ccc(C(=O)NCCc2ccc(Cl)cc2)o1 (stereo not given) | 1% | ? | -5.1% | . | -20% | . | 12% | -6%
Fc1cccc(Cl)c1COc1ccc(-c2nnco2)cc1 | . | 9% | . | ? | -39% | ? | -4% | 21%
CCS(=O)(=O)NCc1ccc2[nH]c3c(c2c1)CCCC3 | -22% | . | -6.4% | . | 14% | 3% | 0% | .
COc1ccc(C2CC(c3ccccc3OC(C)=O)=NN2C(=O)/C=C/c2ccccc2)cc1 (stereo not given) | -20% | -8% | -6.1% | ? | 19% | -1% | -3% | -13%
Cc1nn(Cc2c(F)c(F)c(F)c(F)c2F)c(C)c1NC(=O)c1ccnn1C | . | 17% | . | 10%[46.1 µM] | 6% | -4%[46.1 µM] | 1% | 7%
COc1ccc(OC)c(N/C(C)=C/C(=O)c2ccncc2)c1 | . | -23% | . | -4% | -21% | -22% | -10% | -6%
Cc1noc(C)c1S(=O)(=O)Nc1cc(C(F)(F)F)ccc1N1CCOCC1 | . | -33% | . | . | 2% | . | 1% | -14%
Cc1cccc(-n2nc3c(c2NC(=O)c2ccc(Br)o2)CSC3)c1C | ? | -15% | 0.5% | 27% | -29% | ? | 4% | 6%
Cc1cccc(C)c1N=C1C(=O)Nc2ccccc21 | . | 0% | . | . | -3% | . | 5% | -5%
CCOC(=O)C1C(C(=O)Nc2cccc(C(F)(F)F)c2)C1C(=O)NC(C)C (stereo not given) | . | 32µM* | . | ? | . | 7%[46.1 µM] | 1% | -19%
O=C(Nc1ccc(S(=O)(=O)N2CCOCC2)cc1)c1ccc(F)cc1 | . | -12% | . | -25%[46.1 µM] | 3% | 2%[46.1 µM] | -3% | 2%
CSc1nn2c(C(F)(F)F)cc(C(F)(F)F)nc2c1C(N)=O | . | -23% | . | . | 3% | . | 0% | -10%
O=C(Nc1ccc(Cl)cc1)C1CCN(c2nc3ccccc3nc2C(F)(F)F)CC1 | 4% | -14% | 1.1% | 8%[46.1 µM] | . | . | . | .
N#CC1=C(N)Oc2n[nH]c(-c3ccc(F)cc3)c2C1c1cccnc1 (stereo not given) | -1% | -20% | -8.1% | 18% | 4% | 7% | -4% | 25%
Cc1ccc(OCC(=O)NCCc2nc3ccccc3[nH]2)c(C)c1 | . | -18% | . | -13% | -7% | -17% | 0% | ?
COc1cccc(NC(=O)c2ccc3c(SCC(=O)O)c4c(nc3c2)CCCC4)c1 | . | 7% | . | 17%[46.1 µM] | . | 1%[46.1 µM] | -1% | 11%
CCN(CC)CCNC(=O)c1c(O)c2c([nH]c1=O)CCCC2 | -2% | . | 2.7% | -12% | 6% | -3% | 10% | -5%
C=CCN(C(=O)Nc1ccc(OC)cc1)c1nnc(-c2ccncc2)s1 | . | -21% | . | -14%[46.1 µM] | -32% | -15%[46.1 µM] | 6% | 5%
COc1ccc(CN2CC(C(=O)NCCCN3CCCCC3)CC2=O)cc1 (stereo not given) | . | 2% | . | 6%[46.1 µM] | -8% | -25%[46.1 µM] | 0% | -8%
COc1ccc(-c2nc(C)c(CCNC(=O)c3ccc(C(F)(F)F)cc3)s2)cc1OC | 18% | -14% | -5.4% | -19%[46.1 µM] | . | . | . | .
CCO[C@@H]1OC(C(=O)N2CCN(C)CC2)=C[C@H](C2CCCCC2)[C@H]1CCCO | . | -19% | . | . | -1% | . | -1% | -3%
CCC1(C(=O)OC)NC(c2ccco2)C2C(=O)N(c3ccc(C)cc3)C(=O)C21 (stereo not given) | -10% | -19% | 7.0% | 3% | -3% | -22% | -6% | 7%
O=C(c1cccc(Cl)c1)N1CCCC(C(=O)N2CCN(c3ccccc3)CC2)C1 (stereo not given) | . | -15% | . | -8% | -22% | ? | 5% | -13%
CC(=O)c1cnc(Nc2ccc(C)cc2)s1 | . | 31%[activator] | . | ? | -6% | ? | -2% | 9%
Cc1cccc(NC(=O)CNC(=O)Cn2cc(C(F)(F)F)cc(Cl)c2=O)c1C | . | -7% | . | -6% | . | 1%[46.1 µM] | -1% | -9%
